Compound activity: PubChem BioAssay, ICCB-Longwood Screening Facility, Harvard Medical School
Sa growth 42C: S. aureus growth inhibition at 42 and 30 °C, primary screen, LtaS inhibitor project, RN4220, two temperatures. OD600, 20 h, 42 °C; active compounds read low. relative growth, % (test concentration not listed). hit rate 0.53% among 170,000;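 active means growth at 42 °C up to 50% and 20 or more points under that at 30 °C, or under 10% at both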;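 further: 300 nL library stock went into each well; scaled to the means of positive and negative controls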
HCMV NEC inh: inhibitors of HCMV UL50-UL53 interaction, biochemical, HTRF | normalized percent inhibition | inhibition, % (concentration not given with the values) | HCMV UL50-UL53 nuclear egress complex (human cytomegalovirus) | AID 1918969, 2023 | hit rate 0.15% among 190,000;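 active means both replicates at 50% or more, plus weaker picks with an unusually low signal ratio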;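 further: stock transfer was 100 nL into about 20 µL; 0% = negative control wells and 100% = wells with untagged competitor protein; inactives centre near -12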
GIV Gai3 FP: inhibitors of GIV peptide binding to Galpha-i3, primary screen, biochemical, fluorescence polarization, FITC-GIV GBA peptide, rat Galphai3. 90 min; active compounds read low; scaled: aluminum fluoride 0%, vehicle 100%. hit rate 0.42% among 210,000. percent of control (FP), % (concentration not given with the values). Guanine nucleotide-binding protein G(i) subunit alpha-3 (Rattus norvegicus), P08753. AID 1224905, 2016;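 active means replicate mean at 85% of control or lower, very high polarization wells dropped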;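 further: wells of about 15 µL received 100 nL stock; the first replicate is given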
Target sequence (P08753 whole entry, looked up): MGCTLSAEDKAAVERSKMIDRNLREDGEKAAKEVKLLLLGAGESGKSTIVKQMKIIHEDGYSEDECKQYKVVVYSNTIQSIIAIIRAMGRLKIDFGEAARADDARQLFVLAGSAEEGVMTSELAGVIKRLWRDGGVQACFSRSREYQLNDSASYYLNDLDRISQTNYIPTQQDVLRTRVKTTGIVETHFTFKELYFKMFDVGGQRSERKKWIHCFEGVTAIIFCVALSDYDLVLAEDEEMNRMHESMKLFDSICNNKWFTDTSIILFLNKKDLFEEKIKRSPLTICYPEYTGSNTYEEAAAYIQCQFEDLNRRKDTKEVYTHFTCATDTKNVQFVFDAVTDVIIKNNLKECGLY
Sa growth 42C second temp: recorded beside Sa growth 42C, whose call it bears; relative growth, %; measured here: growth at 30 °C;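 optical density after 20 h as mean of two plates; 100% = untreated growth and lower means inhibition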
Numbers without * were called inactive; x = no result given.

Screens by letter: A = Sa growth 42C; B = Sa growth 42C second temp; C = HCMV NEC inh; D = GIV Gai3 FP
1: COc1ccc(-c2cc(C(F)(F)F)n3nc(-c4ccc(Cl)cc4)cc3n2)cc1OC
  A = 97; B = 91; C = -26; D = 105
2: COC(=O)C12CC3(C)CC(C)(CC(C)(C3)C1)C2
  A = 89; B = 91; C = -13; D = x
3: Cc1ccc(C)c(S(=O)(=O)c2nnn3c2nc(N2CCCCC2)c2sccc23)c1
  A = 89; B = 83; C = x; D = 101
4: CC1(C)C(=O)Nc2ccccc2N1C(=O)COC(=O)c1ccc(S(=O)(=O)N2CCCC2)cc1
  A = 82; B = 90; C = -23; D = x
5: Cn1ncc(C(N)=O)c1N
  A = 100; B = 91; C = -19; D = 103
6: Cn1nnc2c([nH]c3ccccc32)c1=O
  A = 69; B = 88; C = -25; D = x
7: CCOc1ccccc1NC(=O)C1CCCN(S(=O)(=O)c2c(C)[nH]c(=O)[nH]c2=O)C1 (centres undefined)
  A = 105; B = 93; C = -6; D = 107
8: COc1ccc2c(C)c(CCC(=O)NCCc3ccccc3)c(=O)oc2c1
  A = 91; B = 76; C = -5; D = 101
9: Cc1ccc(-c2nn(-c3ccccc3)cc2C(=O)N2CCOCC2)cc1
  A = 96; B = 93; C = 10; D = x
10: CCCn1c(=O)c2ccccc2n2c(=O)n(CC(=O)Nc3ccc4c(c3)OCO4)nc12
  A = x; B = x; C = -6; D = 102
11: CC(C)Cc1nnc(C(=O)Nc2ccc(C(=O)NCc3cccc(F)c3)cc2)s1
  A = x; B = x; C = -20; D = 94
12: CCCNC(=O)CSc1nnc2n(-c3ccccc3)c(=O)c3ccccc3n12
  A = 85; B = 94; C = -13; D = x
13: O=C(NCC12CC3CC(CC(C3)C1)C2)c1cc(-c2ccccc2F)no1
  A = 113; B = 95; C = -10; D = 100
14: CCn1nnc(NCc2ccc(-c3ccc(Cl)cc3Cl)o2)n1
  A = x; B = x; C = -2; D = 99
15: CC(C)CCNCc1c(C(=O)O)n(Cc2ccccc2)c2ccccc12
  A = 125; B = 82; C = x; D = 117

Single records, from the list above. Screens in order: Sa growth 42C, Sa growth 42C second temp, HCMV NEC inh, GIV Gai3 FP
Cc1ccc(C)c(S(=O)(=O)c2nnn3c2nc(N2CCCCC2)c2sccc23)c1 reads 89, 83, x, 101
CC(C)Cc1nnc(C(=O)Nc2ccc(C(=O)NCc3cccc(F)c3)cc2)s1 reads x, x, -20, 94
CCOc1ccccc1NC(=O)C1CCCN(S(=O)(=O)c2c(C)[nH]c(=O)[nH]c2=O)C1 (centres undefined) reads 105, 93, -6, 107
CCCNC(=O)CSc1nnc2n(-c3ccccc3)c(=O)c3ccccc3n12 reads 85, 94, -13, x
Cn1ncc(C(N)=O)c1N reads 100, 91, -19, 103

Arranged by SMILES length (rising): some entries from above
Screens by letter: A = Sa growth 42C; B = Sa growth 42C second temp; C = HCMV NEC inh; D = GIV Gai3 FP
5: Cn1ncc(C(N)=O)c1N
  A = 100; B = 91; C = -19; D = 103
3: Cc1ccc(C)c(S(=O)(=O)c2nnn3c2nc(N2CCCCC2)c2sccc23)c1
  A = 89; B = 83; C = x; D = 101
10: CCCn1c(=O)c2ccccc2n2c(=O)n(CC(=O)Nc3ccc4c(c3)OCO4)nc12
  A = x; B = x; C = -6; D = 102

The list goes on:
Screens by letter: A = Sa growth 42C; B = Sa growth 42C second temp; C = HCMV NEC inh; D = GIV Gai3 FP
16: Cc1ccc(C)n1CC(N)=O
  A = 92; B = 93; C = 4; D = x
17: COc1ccc(Nc2oc(/C=C/c3ccccc3OC)nc2C#N)cc1
  A = 103; B = 86; C = -35; D = 99
18: Cc1ccc(C)c(-n2c(SCc3cn4ccccc4n3)nnc2-c2cc3sccc3n2C)c1
  A = 101; B = 92; C = 0; D = 102
19: CCCCN1C2CCCC1CC(NC(=O)C1CCCCC1)C2 (centres undefined)
  A = 112; B = 107; C = 0; D = 99
20: COc1cccc(CSc2nc3ccncc3n2Cc2ccc(C(=O)NCc3ccccc3)cc2)c1
  A = x; B = x; C = 7; D = 106
21: C/C(=C\C(=O)c1ccc(Cl)cc1)N1CCOCC1
  A = 130; B = 87; C = -10; D = 108
22: CC(=O)NCCn1c(SCc2ccc(C)cc2)nc2ccccc2c1=O
  A = 92; B = 84; C = 6; D = 100
23: OCCN1CCN(c2nn3nnnc3c3ccccc23)CC1
  A = x; B = x; C = -27; D = 95
24: On1ccc2c(Br)cncc21
  A = 93; B = 54; C = -8; D = 101
25: O=C(O)CCn1c2ccccc2c2cn[nH]c(=O)c21
  A = 117; B = 83; C = x; D = 121
26: CC(C)(C)c1ccc(C(=O)N/C(=C/c2cccs2)C(=O)N2CCOCC2)cc1
  A = 92; B = 87; C = -16; D = x
27: N#CC(C(=O)COc1ccccc1)c1nc2ccccc2[nH]1 (centres undefined)
  A = 116; B = 79; C = -37; D = x
28: C=CCN=C1SCC(=O)N1S(=O)(=O)c1ccc(C)cc1
  A = 88; B = 74; C = -6; D = 101
29: O[C@@H]1C2C3CC4C5C3C1C(c1ccccc1)(C42)[C@H]5O (some centres undefined)
  A = 101; B = 94; C = -6; D = 104
30: CSCc1ccc(C(=O)N2CCN(C(=O)c3ccccc3)CC2)cc1
  A = 122; B = 105; C = 0; D = x
31: Cn1c(=O)c2c(nc(Oc3ccc(C#N)cc3)n2Cc2ccc(Cl)cc2Cl)n(C)c1=O
  A = 77; B = 100; C = 5; D = 109
32: COc1ccc(CCNC(=O)c2cc(C)nc3c2c(C)nn3-c2ccc(C)cc2)cc1OC
  A = 89; B = 88; C = x; D = 103
33: Cc1cc(C)n(-c2nc(NC(C)C)nc(NC(C)(C)C)n2)n1
  A = 163; B = 51; C = -33; D = 111
34: Cc1ccc2c(CN3C(=O)c4ccccc4C3=O)cc(=O)oc2c1
  A = 70; B = 85; C = -22; D = x
35: COc1ccc2oc(=N)c(C(N)=O)cc2c1
  A = 90; B = 90; C = x; D = 99
36: COc1ccc(-c2c(C)nn3c4c(cnc23)C(=O)CC(C)(C)C4)cc1
  A = x; B = x; C = -16; D = 101
37: COc1ccccc1OCC(O)CN (centres undefined)
  A = 102; B = 83; C = -28; D = 100
38: Cc1nc(N)c(Cc2ccc(Cl)cc2Cl)c(N)n1
  A = x; B = x; C = -6; D = 109
39: C=C(C#N)CN1CCN(CC(=C)C#N)CC1
  A = 82; B = 84; C = -17; D = 99
40: O=C(NC1CC1)c1ccc2c(=O)nc3c(-c4ccccc4)n[nH]n3c2c1
  A = x; B = x; C = -23; D = 111
41: COc1cc(/C=C2\SC(=O)N(CC(=O)Nc3ccc(C)cc3C)C2=O)cc(OC)c1OC
  A = x; B = x; C = -3; D = 104
42: O=C(Nc1ccccc1OC(F)F)c1ccccc1
  A = 112; B = 102; C = 7; D = 105
43: Cc1nc2c(C)cccn2c1/C(O)=C1\C(=O)C(=O)N(CCN(C)C)C1c1cccnc1 (centres undefined)
  A = 109; B = 90; C = -16; D = 105
44: CC(C)n1cnc(S(=O)(=O)N2CCC(C(=O)N3CCOCC3)CC2)c1
  A = x; B = x; C = -18; D = 102
45: O=C(Nc1ccccn1)c1cc2ccccc2o1
  A = 89; B = 69; C = -18; D = x

6 entries drawn at random from the list so far, as already listed:
Screens by letter: A = Sa growth 42C; B = Sa growth 42C second temp; C = HCMV NEC inh; D = GIV Gai3 FP
27: N#CC(C(=O)COc1ccccc1)c1nc2ccccc2[nH]1 (centres undefined)
  A = 116; B = 79; C = -37; D = x
24: On1ccc2c(Br)cncc21
  A = 93; B = 54; C = -8; D = 101
33: Cc1cc(C)n(-c2nc(NC(C)C)nc(NC(C)(C)C)n2)n1
  A = 163; B = 51; C = -33; D = 111
44: CC(C)n1cnc(S(=O)(=O)N2CCC(C(=O)N3CCOCC3)CC2)c1
  A = x; B = x; C = -18; D = 102
16: Cc1ccc(C)n1CC(N)=O
  A = 92; B = 93; C = 4; D = x
45: O=C(Nc1ccccn1)c1cc2ccccc2o1
  A = 89; B = 69; C = -18; D = x

(listing goes on)
Screens by letter: A = Sa growth 42C; B = Sa growth 42C second temp; C = HCMV NEC inh; D = GIV Gai3 FP
46: COc1cc2nc(-c3ccccc3)oc(=O)c2cc1OC
  A = 114; B = 78; C = -3; D = 100
47: COCC(C)NCc1cccc(Br)c1 (centres undefined)
  A = 106; B = 87; C = -5; D = x
48: CC1CN=C(N(C)C(=O)Nc2cccc(Cl)c2)S1 (centres undefined)
  A = 98; B = 85; C = -1; D = 99
49: O=C(O)CCCn1cnc2ccccc2c1=O
  A = 83; B = 82; C = 2; D = 102
50: Cc1ccc(C)c(NC(=O)NCc2cc(=O)n3nc(-c4ccccc4C)sc3n2)c1
  A = x; B = x; C = -32; D = 104
51: CCCSc1ncc(Cl)c(C(=O)Nc2c(C(=O)c3ccc(C)cc3)oc3ccccc23)n1
  A = 106; B = 88; C = -2; D = 106
52: CC1(C)N=C2C(=[N+]1[O-])CCC/C2=N/O
  A = 112; B = 109; C = -23; D = 98
53: CCC(CC)C(=O)N1CCC2(CC1)Nc1ccccc1-n1cccc12
  A = x; B = x; C = -6; D = 107
54: O=C(COc1ccccc1-c1nc(-c2ccccc2Cl)no1)N1CCOCC1
  A = x; B = x; C = -8; D = 105
55: N#CCCn1cc(C2CC(c3ccccc3)=NNC2=O)c2ccccc21 (centres undefined)
  A = 107; B = 85; C = x; D = 104
56: Nc1cc(N)nc(SCC(=O)N2c3ccccc3Sc3ccccc32)n1
  A = 91; B = 62; C = x; D = 100
57: O=C(COC(=O)c1ccccc1)NCc1ccc2c(c1)OCO2
  A = 103; B = 91; C = -16; D = x
58: Cc1ccccc1NC(=O)c1c(NC(=O)c2ccccc2F)sc2c1CCC(C)C2 (centres undefined)
  A = 109; B = 89; C = -19; D = 110
59: COc1ccc(C2=C(C)C(N3CCC(C(=O)Nc4ccccc4F)CC3)=NS2(=O)=O)cc1
  A = 84; B = 92; C = x; D = 106
60: CCOc1ccc(-c2nc(Cn3c(=O)cc(-c4ccccc4)c4c(C)nn(C)c43)c(C)o2)cc1OC
  A = 102; B = 101; C = x; D = 102
61: CCc1ccc(NC(=O)Cc2cn(C)c3ccccc23)cc1
  A = 110; B = 89; C = x; D = 102
62: Cc1cc(C)nc(-n2ncc(Cl)c(Cl)c2=O)n1
  A = 100; B = 92; C = -67; D = x
63: CCCc1cnc(N2CCN(CC(=O)Nc3ccc4c(c3)OCCO4)CC2)nc1
  A = 88; B = 83; C = -26; D = 106
64: O=C(Cn1ccn2nc(-c3ccc4c(c3)OCO4)cc2c1=O)Nc1ccc(Br)cc1F
  A = x; B = x; C = -17; D = 101
65: O=C(CSc1nc2ccccc2c(=O)n1Cc1ccco1)Nc1ccccc1
  A = 82; B = 80; C = -32; D = 99
66: CCN(CC)c1ccc(NC(=O)CCS(=O)(=O)c2cc3c(cc2Cl)NC(=O)CO3)c(C)c1
  A = 114; B = 99; C = x; D = 102
67: Cc1ccc2c(Sc3ccc(Cl)cc3)c(C(=O)NC(C)c3ccc4c(c3)OCCO4)[nH]c2c1 (centres undefined)
  A = 98; B = 83; C = x; D = 100
68: CCC(=O)Nc1cc(-c2ccccc2)nn(CC(=O)Nc2ccccc2)c1=O
  A = x; B = x; C = 0; D = 109
69: COc1ccc(-c2[nH]nc3oc(=O)cc(C)c23)cc1
  A = 91; B = 66; C = -16; D = 101
70: O=C(COC(=O)c1cccc(S(=O)(=O)NCc2ccco2)c1)Nc1ccccc1
  A = 100; B = 86; C = -11; D = x
71: CCOC(=O)NCc1ccc2c(c1)OCO2
  A = 84; B = 94; C = -11; D = x
72: CCc1ccc(-n2nc(C)c3c(C)cc(=O)n(Cc4nc(-c5ccccc5)oc4C)c32)cc1
  A = 107; B = 95; C = x; D = 104
73: O=C(NNc1nc(-c2ccccc2)cs1)c1cccs1
  A = 104; B = 101; C = -12; D = 101
74: Fc1ccc(/C=N/c2nc3ccccc3s2)cc1
  A = 94; B = 87; C = -3; D = x
75: CCCC1=C(C(=O)OC)C(c2ccc(C(=O)OC)cc2)NC(=O)N1C (centres undefined)
  A = 103; B = 95; C = -27; D = x
76: Cc1c(C(=O)NCC2(N3CCN(C)CC3)CCCCC2)oc2ccccc12
  A = x; B = x; C = 6; D = 108
77: Cc1onc(-c2ccccc2Cl)c1C(=O)Nc1cc2c(cc1N1CCCCC1)n(C)c(=O)c(=O)n2C
  A = x; B = x; C = -26; D = 98
78: O=C(NN1CC(=O)N(Cc2ccco2)C1=O)C(c1ccccc1)c1ccccc1
  A = 116; B = 94; C = 0; D = 104
79: O=C(O)C1C2CCC(O2)C1C(=O)N1CCN(c2ccccc2)CC1 (centres undefined)
  A = 88; B = 92; C = -12; D = 103
80: CSc1nn(-c2ccccc2)cc1C(=O)Nc1ccc(Cl)cc1
  A = 104; B = 90; C = 3; D = 105
